# SARS PLpro yeast: inhibitors of SARS-CoV papain-like protease in yeast | S. cerevisiae expressing SARS-CoV PLpro, growth rescue; control for the full effect not named in the record | Potency, µM (highest dose often 32.9 µM), for the others: at the top dose activity, positive = growth rescue | hit rate 0.19% among 330,000; further: 0% is about no effect; nearly all actives have a fitted effect of over 55% in size; growth read by luminescence after 48 h
# Cruzain inh noDet: inhibitors of Trypanosoma cruzi cruzain without detergent | purified cruzain, Z-FR-AMC fluorescence, no detergent | Potency, µM, without a hit: max response, negative = inhibition, most hits filed as inhibitors | P25779 | hit rate 2.3% among 200,000; active means well fitted curve in the direction sought with a large enough effect; inconclusive means small, poorly fitted or top-dose-only effect, or another doubt; inactive means no such curve, though single readings can be large; an effect the other way counts as inactive or inconclusive;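 further: plate controls were enzyme without inhibitor for no effect and buffer without enzyme for full effect; nearly all actives have a fitted effect of over 40% in size; top concentration of the series not given in the record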
# Target sequence (P25779 123-467 limits assumed): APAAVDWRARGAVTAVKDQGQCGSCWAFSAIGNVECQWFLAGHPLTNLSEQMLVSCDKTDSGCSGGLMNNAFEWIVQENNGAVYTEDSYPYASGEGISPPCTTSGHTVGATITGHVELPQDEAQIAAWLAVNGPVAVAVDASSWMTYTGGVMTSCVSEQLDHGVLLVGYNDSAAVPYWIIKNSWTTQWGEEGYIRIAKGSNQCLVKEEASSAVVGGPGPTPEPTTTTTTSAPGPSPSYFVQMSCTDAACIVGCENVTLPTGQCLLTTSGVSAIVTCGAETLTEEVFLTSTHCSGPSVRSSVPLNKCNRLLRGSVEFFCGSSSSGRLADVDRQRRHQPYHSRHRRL
#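 Purified cruzain at 1.5 nM, pre-incubated 15 min with compound at room temperature in 100 mM sodium acetate pH 5.5, 5 mM DTT, 0.00005% Triton X-100. Reaction started with 2 uM Z-FR-AMC; AMC fluorescence increase over 60 s gives rate.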
# Cruzain Triton: blocks cruzain activity in presence of Triton detergent. P25779. purified cruzain, Z-FR-AMC fluorescence, 0.01% Triton. Potency, µM, without a hit: max response, negative = inhibition, actives largely listed as inhibitors. hit rate 0.43% among 200,000. AID 1478; active means well fitted curve in the direction sought with a large enough effect; inconclusive means small, poorly fitted or top-dose-only effect, or another doubt; inactive means no such curve, though single readings can be large; an effect the other way counts as inactive or inconclusive;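 further: plate controls were neutral wells for no effect and buffer without enzyme for full effect; nearly all actives have a fitted effect of over 40% in size; top concentration of the series not given in the record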
#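 Detergent-containing run (0.01% Triton X-100) in acetate buffer pH 5.5 with 5 mM DTT: enzyme at 1.5 nM final, 15 min compound preincubation at room temperature, then 2 uM Z-FR-AMC substrate. Activity taken as 60 s fluorescence increase at 360/450 nm.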
# Marburg entry inh: blocks Marburg virus binding to or entry into cells; Potency, µM (doses to about 37.8 µM), for inactives: at the top dose activity change, negative = inhibition, hits mostly inhibitors; hit rate 1.8% among 300,000; Marburg virus pseudotyped entry inhibition, cell reporter; control for the full effect not named in the record; about a third of the inactives were read at about 46 µM; AID 540276; active = well fitted inhibition curve with a large enough effect; inconclusive = small, poorly fitted or top-dose-only effect, or effect the other way; inactive = flat fitted curve, though single readings scatter; tested in HEK293 cells; about a fifth of its hits are not listed in these tables; further: on the % scale 0 is the no-effect control and ±100 the full control effect; luciferase read-out
# NS1 function inh: blocks influenza NS1 protein function. S. cerevisiae slowed by influenza A NS1, growth recovery by OD600. Potency, µM (highest dose often 46.1 µM), for inactives: at the top dose activity, positive = more growth. hit rate 0.4% among 270,000; further: actives are rising curves; nearly all actives have a fitted effect of over 50% in size
#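 Compounds were scored for reversing the slow growth caused by influenza A NS1 in S. cerevisiae, measured by optical density at 600 nm. Assay medium contained 2% galactose at pH 6.0; NS1-free yeast of the same strain were the positive control.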
# StopGo reporter: lowers the luciferase signal of an FMDV 2A StopGo reporter | human cells with a luciferase reporter of 2A StopGo recoding; control for the full effect not named in the record | Potency, µM (doses to about 57.9 µM), without a hit: at the top dose signal change, negative = less light | hit rate 1.2% among 410,000; active = well fitted falling curve with a large enough effect; inconclusive = small, poorly fitted or top-dose-only effect; inactive = no such curve, though single readings can be large or run the other way; tested in HEK293T cells; further: on the % scale 0 is the no-effect control and ±100 the full control effect; nearly all actives have a fitted effect of over 45% in size; luciferase light after 4 h
# RE007 growth inh: less growth of the S. pombe RE007 Vpr strain | AID 651644 | Potency, µM (top dose mostly 92.2 µM), inactives show top-dose activity change, negative = less growth | hit rate 0.21% among 360,000 | S. pombe RE007 Vpr strain, BacTiter-Glo ATP luminescence, 24 h; control for the full effect not named in the record; active = well fitted falling curve with a large enough effect; inconclusive = small, poorly fitted or top-dose-only effect; inactive = no such curve, though single readings can be large or run the other way;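 further: on the % scale 0 is the no-effect control and ±100 the full control effect; nearly all actives have a fitted effect of over 50% in size; the assay follows cell death caused by Vpr and the record does not say whether a fall means rescue or toxicity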
#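 Fission yeast strain RE007, carrying one chromosomally integrated HIV-1 vpr copy, was seeded at OD 0.01 in PMG+AL medium with 23 nL pinned compound. After 24 h at 30 °C and 99% humidity, viability was read by BacTiter-Glo luminescence.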
# LASV entry inh: inhibitors of Lassa virus binding or cell entry. Potency, µM (series often up to 37.9 µM), for the others: at the top dose activity change, negative = inhibition, usual class: inhibitors. Lassa virus pseudotype entry inhibition, cell reporter; control for the full effect not named in the record. AID 540256. hit rate 1.2% among 300,000; active means well fitted inhibition curve with a large enough effect; inconclusive means small, poorly fitted or top-dose-only effect, or effect the other way; inactive means flat fitted curve, though single readings scatter; tested in HEK293 cells; further: on the % scale 0 is the no-effect control and ±100 the full control effect; nearly all actives have a fitted effect of over 50% in size; luciferase read-out
# The depositor's hits bear a star; ? = inconclusive; . = no result given; & = joins results of further samples; [ ] = dose if it differs, or a comment. Unless noted, the call rests on the fitted dose curve; in most records, active means well fitted rising curve with a large enough effect; inconclusive means small, poorly fitted or top-dose-only effect; inactive means no such curve, though single readings can be large or run the other way. Potency means the concentration at half of the fitted maximal effect. The order is random; overall some 4.6% were active at least once.
SMILES,SARS PLpro yeast,Cruzain inh noDet,Cruzain Triton,Marburg entry inh,NS1 function inh,StopGo reporter,RE007 growth inh,LASV entry inh
NC(=O)c1ccc(Nc2ccc3nonc3c2[N+](=O)[O-])cc1,-4%,.,.,9%,2%,-11%,-8%,?
FC(F)(F)c1cccc(-c2nc3nc(Cl)c(Cl)nc3[nH]2)c1,-5%,-13%,-5.0%,.,-41%&-122%,-23%,.,.
Cc1ccc(NC(=O)OCCN2CCN(Cc3ccccc3)CCC2=O)cc1C,-1%,-3%&-4%,2.3%&2.3%,-6%,-13%,-24%,-5%,-28%
Cn1cc(C(=O)c2ccc(Cl)cc2Cl)cc1C(=O)N/N=C(\N)COc1ccccc1,4%,-19%,-3.4%,?,-5%,-27%,13%,?
C/C(=N\NC(=O)c1nnn(-c2nonc2N)c1CSc1ccc(Cl)cc1)c1ccco1,1%,.,.,.,14%,-11%,11%,.
Cn1c(CC(=O)Nc2ccccc2Cl)nnc1SCC(=O)NC1CCCCC1,1%,.,.,1%[46.1 µM],-2%,13%,-2%,13%
NC(=O)CCn1c2ccccc2c2ccccc21,0%,.,.,6%[46.1 µM],5%,-7%,3%,14%
COc1cccc(C(=O)Nc2ncc3c(n2)CC(C)(C)CC3=O)c1,-5%,-6%,12%,-18%,-3%,-2%,-2%,-10%
O=C(CSc1nc(=O)n(Cc2cccnc2)c2c1CCC2)Nc1cccc(Cl)c1,.,?,-7.9%,.,.,0%,.,?
Cc1ccc(C(=O)Nc2nnc(SCc3cc(=O)c4c(C)ccc(C)c4[nH]3)s2)cc1,.,-29%,1.4%,.,.,-26%,.,-18%[46.1 µM]
CCc1c(C)sc(NC(=O)CC#N)c1C#N,0%,-24%,-6.7%,2%,3%,5%,13%,1%
COc1ccc(S(=O)(=O)N2CCC(C(=O)NCc3ccncc3)CC2)cc1,-3%,.,.,4%[46.1 µM],8%,-3%,4%,-12%[46.1 µM]
CCC(=O)c1cn(Cc2ccccc2)c2ccccc12,-3%,.,.,-13%[46.1 µM],-3%,-16%,1%,9%
Cc1cc(C)cc(OCC(=O)Nc2c(C)ccc3nsnc23)c1,.,-2%,-0.1%,11%[46.1 µM],.,-30%,.,8%[46.1 µM]
COc1ccc(C(=O)NCCCN2CCOCC2)cc1,4%,.,.,.,3%,24%,-3%,.
O=C(N/N=C/c1cccc([N+](=O)[O-])c1)C(=O)N1CCCCCC1,-1%,.,.,-7%,8%,65%[activator],-4%,-11%
Cc1nn(C)cc1CN(C)C(=O)CCc1nnc(CCC2CCCCC2)o1,1%,.,.,.,1%,41%[activator],0%,.
COc1ccc(NC2CCCN(C(=O)COc3ccc(C)cc3)C2)cc1 (stereo not drawn),-4%,.,.,4%,-15%,-4%,-17%,?
C[C@H]1CN(CCc2ccccc2)C(=O)[C@@H]1CC(=O)NCc1ccccc1,-3%,.,.,.,-9%,44%[activator],8%,.
Cc1ccc(NC(=O)N2CCCC(c3nc(-c4ccc(F)cc4)no3)C2)cc1 (stereo not drawn),3%,.,.,.,-6%,20%,5%,.
CCOc1ccc(CN(CC)C(=O)c2ccc3c(c2)[nH]c(=O)c(=O)n3CC)cc1OC,0%,.,.,23%[46.1 µM],-4%,-4%,1%,.
Cc1cc(C)c2nc(NC(=O)c3ccc([N+](=O)[O-])o3)sc2c1,-1%,.,.,-5%,-8%,-4%,-12%,?
COc1ccc(NC(=O)c2ccc(NCCCN3CCOCC3)c([N+](=O)[O-])c2)cc1,4%,4%,-4.0%,-17%,1%,-6%,-13%,7%
CCc1ccc(C(=O)CCC(=O)Nc2ccc(OC)c(S(=O)(=O)N3CCCCC3)c2)cc1,2%,.,.,?,.,-20%,-7%,?
COc1ccccc1-c1nnc(NC(=O)c2cccc(N3C(=O)CCC3=O)c2)o1,6%,1%,-1.8%,8%,-4%,-10%,15%,1%
O=C(NCCCNC(=O)c1ccccc1Br)c1ccccc1Br,2%,.,.,.,17%,15%,2%,.
Cc1ccc(Cl)c2sc(NC(=O)C3=COCCO3)nc12,-5%,.,.,.,-30%,0%,?,.
CCCNC(=S)NCCN1CCCCC1,-10%,6%,0.7%,2%,6%,1%,-15%,3%
Cc1ccc(NC(=O)COC(=O)CCNS(=O)(=O)c2c(Cl)cccc2Cl)cc1,-2%,.,.,14%[46.1 µM],.,-2%,7%,?
COc1ccc(NC(=O)CN(C)C(=O)c2cn(-c3ccccc3)nc2-c2ccc(Cl)cc2)cc1,-10%,.,.,?,.,?,24%,5%
CN1CCc2c(sc3c2C(=O)NC(c2ccc(-c4cccc(Cl)c4)o2)N3)C1 (stereo not drawn),-1%,.,.,.,-77%,-19%,-10%,.
CCC(=O)N/C(=N\OCc1ccc(F)cc1)c1nonc1NC(=O)CC,-4%,1%,-0.9%,-1%,16%,19%,-26%,5%
CC(C)=CCN1CCN(Cc2cnc(-c3ccccc3)s2)CC1CCO (stereo not drawn),-1%,.,.,.,-7%,-17%,2%,.
Cc1oc(-c2ccc(Cl)cc2)nc1CN1CCC(C(=O)N2CCN(Cc3ccccc3)CC2)CC1,-13%,0%,2.3%,6%,-6%,0%,-22%,.
O=C(COc1ccc(S(=O)(=O)Nc2ccc(Cl)cc2)cc1)N1CCOCC1,0%,.,.,?,-9%,4%,-4%,-4%
COc1ccc(CCNC(=O)CS(=O)(=O)Cc2nc(-c3ccccc3Cl)oc2C)cc1OC,-1%,.,.,.,-9%,-22%,11%,.
Cc1[nH]c2ccccc2c1-c1csc(N)n1,2%,.,.,?,22%,-6%,1%,-5%[46.1 µM]
COCCN1C(=O)N(c2cccc(OC)c2)C(=O)C1CC(=O)Nc1ccc(Cl)cc1 (stereo not drawn),7%,.,.,10%,25%,35%[activator],6%,?
O=C(COc1ccc(S(=O)(=O)N2CCCCC2)cc1)NCC1CCCO1 (stereo not drawn),0%,.,.,-5%[46.1 µM],1%,-5%,5%,-3%
CCCC1N=C2c3ccccc3N=C(SCC(=O)NCCc3ccc(Cl)cc3)N2C1=O (stereo not drawn),.,-5%,-2.3%,.,.,24%,.,-11%[46.1 µM]
O=C1CSC(c2cn(-c3ccccc3)nc2-c2cc3ccccc3oc2=O)N1Cc1ccccc1 (stereo not drawn),0%,?,28µM*,?,14%,-18%,-19%,11µM*
Nn1c(SCc2cn3cc(Cl)ccc3n2)nnc1-c1ccncc1,-2%,.,.,6%[46.1 µM],-1%,-16%,10%,-12%
COc1ccc(-n2ncc3c(=O)n(Cc4c(F)cccc4Cl)cnc32)cc1,0%,.,.,1%,3%,38%[activator],-5%,?
COc1cc(OC)c2c(-c3cccc(-c4ccc(C(F)(F)F)cc4)c3)cc(=O)oc2c1,-20%,?,-3.4%,.,.,-18%,1%,.
O=C(c1ccc2c(c1)OCO2)N1CCCC1,12%,-6%,14%,2%,-10%,16%,17%,8%
COc1cccc(NS(=O)(=O)c2ccc3[nH]cc(C(=O)NCCN4CCOCC4)c(=O)c3c2)c1,-3%,6%,3.9%,-6%&-6%,3%,-7%,-12%,5%
CCN1CCN(C(=S)c2ccc(Cl)c(Cl)c2)CC1,0%,-4%,2.2%,-17%,-2%,-18%,0%,18%
O=C(O)CCc1nc(-c2ccc(Cl)cc2)no1,-1%,-10%,1.4%,14%,-89%,-7%,-17%,5%
O=S(=O)(NCc1cccs1)c1cccc(S(=O)(=O)N2CCCCC2)c1,-9%,4%,-2.3%,-29%[46.1 µM],-8%,21%,0%,0%
COc1ccc(F)cc1C(=O)C1CCCN(C(=O)Cc2c(C)noc2C)C1 (stereo not drawn),0%,.,.,?,3%,-16%,-5%,21%[46.1 µM]
COc1cccc(/C=C/C(=C2/C(=O)N(c3ccccc3)N=C2C)c2ccc(Br)cc2)c1OC,8%,?,-5.9%,2%,-2%,-22%,11%,13%
CCCCCCCCOC(=O)CCc1c(C)[nH]c(=S)[nH]c1=O,1%,-2%,2.4%,25%,-7%,?,-1%,-9%
Cc1cccc(-n2nnc(C(=O)N3CCc4ccccc4C3)c2N)c1,-2%,0%,-3.6%,4%,-54%,1%,28%,22%
O=C(Nc1cccc(F)c1)c1coc(=O)c(Br)c1,2%,0%,-7.7%,?,-9%,0%,-23%,-7%
O=C(COc1ccc2c3c(c(=O)oc2c1)CCCC3)NCc1ccccn1,22%,.,.,.,-8%,-23%,4%,.
CN(CC(=O)Nc1ccc(F)cc1)C(=O)COC(=O)Cc1cccs1,-4%,.,.,12%,.,-6%,5%,-1%
Cc1ccc(S(=O)(=O)Nc2cc(=O)[nH]c(SCc3ccccc3Cl)n2)cc1,13%,-7%,-5.0%,?,19%,?,-22%,?
Cc1cccn2c(=O)nc(SCC(=O)N3CCC(C)CC3)nc12,2%,.,.,-2%,.,-1%,8%,-25%
CCS(=O)(=O)N1CCC(C(=O)NCCN2CCN(Cc3ccccc3)CC2)CC1,4%,-11%,4.0%,-1%,-11%,.,5%,21%
CC(CNC(=O)c1cc(Cl)ccc1[N+](=O)[O-])NC(=O)c1cc(Cl)ccc1[N+](=O)[O-] (stereo not drawn),-1%,-4%,-0.3%,?,13%,-9%,2%,-5%
Fc1ccc(Oc2ccnc(Cl)n2)c(Cl)c1,.,.,.,-20%[46.1 µM],.,-8%,1%,?
CCOC(=O)c1c(NC(=O)COC(=O)CCNS(=O)(=O)c2ccccc2)sc(C(=O)N(C)C)c1C,2%,.,.,?,.,-14%,-15%,1%
CC(C)CCn1c(SCCc2ccccc2)nc2c1c(=O)[nH]c(=O)n2C,-10%,-18%,0.6%,?,-15%,-11%,-4%,-29%

# Compound activity as filed in PubChem BioAssay.
